# Screens as filed in PubChem BioAssay.
# Autofluor counter: flagged as autofluorescent in microsphere protease counterscreen; compound autofluorescence counterscreen, microsphere flow cytometry; hits give high values; fluorescence intensity (test concentration not listed); 360,000 tested, 3.1% active;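 active means at least 3 SD above the mean of all compounds, about 16000 in these data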;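 further: 100 nL of 1 mM stock went into each well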
# Sa ugtP lethal: compounds lethal to S. aureus RN4220 ugtP deletion mutant; OD600 growth, 16 h; some inactives read as strong as hits; AID 1259309; 330,000 tested, 0.54% active; growth inhibition, % (test concentration not listed);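 active means z-score under -3 and OD600 up to 0.15 on both plates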;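 further: plate controls were untreated wells for no effect and antibiotic for full effect; wells of about 80 µL received 100 nL stock; the first replicate is given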
# BJeLR viability: BJeLR cell viability loss; BJeLR (HRASV12) viability, CellTiter-Glo ATP luminescence, 48 h; reference of the scale not given here; inhibition, % (no concentration beside the values); 300,000 tested, 0.17% active; AID 1554;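 active means replicate mean above 50%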;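 further: 50 nL library stock added to about 25 µL; numbers are from one replicate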
# Sa RN4220 lethal: kills Staphylococcus aureus RN4220; S. aureus RN4220 growth, OD600, 16 h; inhibition, % (no concentration beside the values); 330,000 tested, 0.33% active; AID 1259311;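 active means z-score of -3 or lower and OD600 up to 0.18 on both plates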;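 further: plate controls were untreated cells for no effect and reference antibiotic for full effect; stock transfer was 100 nL into about 80 µL; one replicate is shown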
# Mtb hypoxia inh: Mtb hypoxia fluorescent reporter inhibition. fluorescence inhibition, % (test concentration not listed). 300,000 tested, 0.1% active. M. tuberculosis hypoxia-regulated fluorescent reporter, fluorescence;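 active means 35 to 45% if threefold the growth effect, above 45% if 1.5-fold the growth effect; inactive means the rest, general growth blockers included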;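 further: wells of about 50 µL received 100 nL stock; 0% = vehicle wells and 100% = reference inhibitor wells; whole bacteria with a GFP reporter of the hypoxia response; strong numbers were not always called active; many hits fall short of the cut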
# PrP 5UTR inh: suppresses PrP 5' UTR mRNA reporter expression. AID 488862. 340,000 tested, 0.35% active. cell-based PrP 5' UTR mRNA reporter, plate reader. inhibition, % (concentration not given with the values);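 active means every replicate at 50% or more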;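 further: 0 = median of the neutral control wells; tested in H4 reporter cells; numbers are from one replicate; inactives centre near -14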
# Mtb hypoxia inh growth: second read-out of Mtb hypoxia inh, no call of its own (marks repeat the call); growth inhibition, %; measured here: M. tuberculosis growth (absorbance);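 0% = vehicle and 100% = reference antibiotic; read after six days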
# Numbers without * were called inactive; . = no result given.
SMILES,Autofluor counter,Sa ugtP lethal,BJeLR viability,Sa RN4220 lethal,Mtb hypoxia inh,Mtb hypoxia inh growth,PrP 5UTR inh
O=C(c1cnc2ccccn2c1=O)N1CCCc2ccccc21,17332*,1.5,-4.1,2.1,4.8,-3.5,-15.3
CC(=O)Oc1ccc(/C=C(\NC(=O)c2ccco2)C(=O)Nc2ccc(C(C)=O)cc2)cc1,3857,6.2,-1.0,2.2,5.7,4.6,-18.8
O=C1C2CCCC1C(N1CCCC1)CC2 (configuration not stated),2157,2.7,-6.0,1.7,-6.5,-0.5,-5.6
CN(C)Cc1c(C(=O)N/N=C/CCc2ccccc2)nnn1-c1nonc1N,3057,.,-5.1,.,.,.,-30.0
COc1ccc(C(CNC(=O)c2oc3ccccc3c2C)N2CCCC2)cc1 (configuration not stated),5956,6.7,.,5.3,3.3,-0.3,-5.4
COc1ccccc1N1CCN(/N=C/c2cccc(OC)c2OC)CC1,3331,.,-0.2,.,.,.,-42.8
O=C(NCc1ccccc1)C(c1cccnc1)N(Cc1ccco1)C(=O)c1ccccn1 (configuration not stated),3740,3.9,-11.8,-0.5,5.4,6.8,-15.1
CCC(C)NC(=O)CCn1c(=O)c2cccn2c2ccc(F)cc21 (configuration not stated),3680,6.2,-8.7,-3.2,-1.4,9.0,-12.0
Cc1ccccc1-n1ncc(C(C)NC(=O)c2ccco2)c1C (configuration not stated),3510,6.5,0.3,1.9,13.0,-5.0,-25.2
CCc1nc2ccc(C(=O)N3CCN(c4cccc(C(F)(F)F)c4)CC3)cc2nc1CC,5544,-10.5,2.6,-2.9,-0.8,3.8,-6.4
Cc1ccc([N+](=O)[O-])c(OCCCN2CCCCCC2)c1,2600,-1.0,4.6,3.1,0.7,9.2,-18.4
CCOc1ccc2nc(SCC(=O)NC(=O)NCc3ccco3)[nH]c2c1,2357,-7.6,17.3,-1.9,.,.,-32.2
NS(=O)(=O)c1ccc(S(=O)(=O)N(CCc2ccccc2)Cc2ccccn2)cc1,3864,3.7,6.2,2.5,0.4,-5.0,-17.7
COc1ccc(-n2nc(C(=O)NCC(=O)N3CCN(C)CC3)c3ccccc3c2=O)cc1OC,4152,-2.4,-0.9,1.6,20.6,9.2,-16.5
Cn1c(=O)cc(OCC(=O)NCCCN2CCN(c3ccccc3F)CC2)c2ccccc21,20602*,-2.0,0.2,2.9,0.8,11.7,-27.4
CCc1ccccc1N(CC(=O)N1CCN(c2ccccc2F)CC1)S(C)(=O)=O,3513,4.3,-9.8,5.6,5.6,9.7,-32.4
CCOC(=O)C1CCCN(C(=O)CN(c2ccc(OC)cc2)S(=O)(=O)c2c(C)noc2C)C1 (configuration not stated),5479,2.4,-1.0,4.1,.,.,11.7
Cc1ccn(CCC(=O)N2c3ccccc3CC2C)n1 (configuration not stated),5511,11.5,-1.2,3.4,4.0,-2.7,-11.8
N/C(=N\OC(=O)c1ccc2ccccc2c1)c1ccncc1,2629,-8.3,1.1,3.0,5.8,0.0,-21.6
COc1ccc(C(=O)COC(=O)C2CCCN2C(=O)C23CC4CC(CC(C4)C2)C3)cc1 (configuration not stated),2383,9.3,.,5.8,6.6,-9.7,-8.5
Cc1cc(C(=O)NC(C)C2CC2)c(Cl)cc1Cl (configuration not stated),4559,4.3,6.6,6.4,3.2,9.0,-13.4
CCc1nnc(NC(=O)c2ccc(-c3ccccc3F)o2)s1,4419,5.1,3.8,1.2,6.6,-2.4,-20.6
Cc1ccc(C2C3C(=O)N(C)C(=O)C3[C@]3(C)C(=O)N(Cc4ccc(-c5ccccc5)cc4)CC(=O)N23)o1 (some centres not stated),.,-2.6,.,4.1,0.3,3.1,.
O=C1c2cc(S(=O)(=O)N(CCO)CCO)ccc2-c2ccc(S(=O)(=O)N(CCO)CCO)cc21,5505,2.0,1.1,2.0,13.9,10.9,19.1
Cc1onc(-c2ccccc2)c1C(=O)NCCCc1ccccc1,3197,5.7,.,10.8,11.5,3.9,4.0

# Going on with the list:
SMILES,Autofluor counter,Sa ugtP lethal,BJeLR viability,Sa RN4220 lethal,Mtb hypoxia inh,Mtb hypoxia inh growth,PrP 5UTR inh
C[N+]1(CC(=O)NNc2c3ccccc3nc3ccccc23)CCOCC1,.,1.4,-5.3,3.2,1.2,-0.8,.
CNC(=O)c1ccc(NC(=O)/C=C/c2cccc(F)c2)cc1,3333,-3.7,-4.1,2.8,12.3,0.2,-32.4
CN(C)/C(=N\O)c1c(Cl)cccc1Cl,3295,.,-5.4,.,.,.,-10.6
Cn1c(SCC(=O)NN=Cc2ccco2)nc2ccccc21,.,4.6,.,4.7,3.7,-0.3,.
CC12CCC(=O)N1C(C(=O)NNC(=O)c1ccccc1)CS2 (configuration not stated),.,5.2,-10.9,3.4,-0.9,0.0,-16.8
C(=NN1CCN(c2ccccc2)CC1)c1cccs1,.,10.2,.,3.3,11.4,5.0,.
Cc1ccc(S(=O)(=O)Nc2ccc(Cl)cn2)cc1C,4121,-0.3,-1.8,6.1,-3.6,-4.5,-23.8
Clc1ccccc1Cn1nnc2ccccc21,4017,0.7,3.5,0.3,2.5,-1.1,-8.2
Cc1ccc(-c2nnc3c4ccccc4c(C)nn23)cc1S(=O)(=O)N1CCN(CCO)CC1,3215,-6.0,-5.5,4.0,3.2,8.6,16.1
Cc1c(-c2ccccc2)nc(N)c(C#N)c1-c1ccco1,20557*,-15.4,.,6.7,6.9,8.3,-13.9
CCOc1ccc(NC(=S)N2CCC(NC(=O)c3ccco3)CC2)cc1,3763,2.0,4.3,0.8,3.5,11.1,-3.7
COc1ccccc1OCCCOc1c(C)cc(C)cc1Br,2474,46.8,-1.9,13.4,11.6,3.6,-17.3
Cc1ccc(OCC(=O)O)c(-n2nc3ccccc3n2)c1,2593,6.9,4.0,2.7,8.3,-1.4,-16.1
Cc1nn(-c2ccccc2)c(N2CCCC2)c1C=Nn1cnc2scc(-c3ccccc3)c2c1=O,.,-5.4,.,-10.8,11.0,8.9,.
Oc1ccc2ccccc2c1CNc1ccccn1,3548,-2.6,4.8,0.2,2.3,6.6,-23.5
CCC1OC(c2ccc([N+](=O)[O-])cc2)=Nc2ccccc21 (configuration not stated),.,3.3,6.8,3.0,20.0,1.8,-13.4
COc1ccccc1C(=O)Nc1cccc(NC(=O)c2ccccc2C)c1,4223,.,5.6,.,.,.,-17.2
CCCOn1c(OCC(C)C)nc2ccccc2c1=O,4486,5.4,-2.7,1.2,-1.5,2.5,1.5
CC1CCCCN1CCNC(=O)c1ccc2c(=O)n(CCc3ccccc3)c(=O)[nH]c2c1 (configuration not stated),14112,6.0,-8.2,3.0,2.2,6.8,-12.8
O=C(CSc1ncnc2nc[nH]c12)N1CCN(c2ccccc2)CC1,8545,-4.7,3.3,1.5,15.2,5.1,-36.1
Cc1ccc(N(CC(=O)NC2CCCCC2)C(=O)Cn2nnc(-c3ccc(C)o3)n2)cc1,4437,3.8,12.7,5.1,0.2,4.8,-12.9
COc1ccc(-c2oc3ccccc3c(=O)c2OC(C)=O)cc1,3563,12.8,4.1,10.1,-2.9,4.6,-51.9
CCC(=O)N(CCc1ccccc1)Cc1cc2cc3c(cc2[nH]c1=O)OCO3,21744*,-9.0,-2.2,-7.2,-4.5,2.3,-19.7
N#CCSc1nc2ccccc2c(=O)n1CC1CCCC1,3226,11.7,2.8,3.8,6.7,8.1,3.9
CCCN1CCN(CC(=O)Nc2nc3ccccc3s2)CC1,4358,7.6,5.2,1.6,10.6,-2.5,-18.7

# Filtered by structure, the compounds so far with a thiophene ring, fused or not (2)
SMILES,Autofluor counter,Sa ugtP lethal,BJeLR viability,Sa RN4220 lethal,Mtb hypoxia inh,Mtb hypoxia inh growth,PrP 5UTR inh
C(=NN1CCN(c2ccccc2)CC1)c1cccs1,.,10.2,.,3.3,11.4,5.0,.
Cc1nn(-c2ccccc2)c(N2CCCC2)c1C=Nn1cnc2scc(-c3ccccc3)c2c1=O,.,-5.4,.,-10.8,11.0,8.9,.

# Next section:
SMILES,Autofluor counter,Sa ugtP lethal,BJeLR viability,Sa RN4220 lethal,Mtb hypoxia inh,Mtb hypoxia inh growth,PrP 5UTR inh
Cc1ccc(C(=O)NN=Cc2c(C)nn(-c3ccccc3)c2Cl)cn1,.,1.7,.,4.5,5.4,5.8,.
Cc1ccc2cc(CCNS(=O)(=O)c3ccc(Cl)cc3)c(=O)[nH]c2c1C,3291,8.3,-3.8,10.6,6.9,11.6,-32.6
Clc1ccccc1Nc1nc(-c2cccnc2)cs1,4401,4.3,1.3,4.6,17.0,4.0,-91.8
CC1(C)CC(C(CCN(Cc2ccccc2)C(=O)c2ccco2)c2ccc(F)cc2)CCO1 (configuration not stated),2530,6.2,-1.4,2.0,-1.5,2.2,-13.9
CCOC(=O)c1ccc(-n2c(=S)sc3c(=O)[nH]c(C)nc32)cc1,5993,16.8,-3.3,3.6,-0.6,11.4,-28.8
O=c1c2ccccc2nc2n1C(CSc1ccc(F)cc1)CS2 (configuration not stated),4195,10.2,-1.9,4.3,1.2,-2.0,-31.6
CCOC(=O)N1CCN(S(=O)(=O)c2ccc(F)c(C(=O)Nc3cc(C)cc(C)c3)c2)CC1,22579*,0.4,-7.1,3.9,8.3,6.3,-14.0
O=C1CSC(=S)N1c1cccc(O)c1,3368,9.0,4.3,4.8,-8.9,-4.9,.
O=C(CCNC(=O)c1ccco1)Nc1ccc(Cl)cc1,4737,-0.8,6.2,-0.4,13.8,-2.5,-24.8
Clc1cc(Cl)cc(Nc2ncn[nH]2)c1,9948,18.4,0.8,19.9,-0.7,2.6,-7.5
O=C(COC(=O)c1n[nH]c2ccccc12)NC(=O)NC1CCCCC1,3296,0.4,0.4,1.5,.,.,-5.8
O=C1CC(N2CCC(c3nc4ccccc4o3)CC2)C(=O)N1c1ccc(Cl)c(C(F)(F)F)c1 (configuration not stated),9479,14.3,-10.6,8.1,18.5,6.5,-15.7
Cc1ccc[n+](CC(=O)Nc2c(Cl)cc(Cl)cc2Cl)c1,3291,3.7,13.4,7.5,16.9,2.9,-1.1
C=C(C)Cc1c(C)c(C#N)c2nc3ccccc3n2c1N1CCCCC1,9034,-3.2,6.8,8.3,15.7,7.8,-6.6
Cc1oc(-c2cc(F)cc(F)c2)nc1CN1CCN(C(=O)c2ccco2)CC1,6031,-0.2,5.3,-3.5,2.3,2.0,-19.6
c1ccc(-c2ccc3c(n2)CCCO3)cc1,2972,-5.5,1.4,11.9,4.9,6.3,-7.3
CC(C)NC(=O)c1ccccc1NC(=O)Cc1ccc(Br)cc1,3325,-0.3,0.7,-2.8,-15.1,6.8,-17.2
COc1ccc(C2CC(=O)c3cnc(N)nc3C2)c(OC)c1 (configuration not stated),3376,-3.1,0.8,-14.5,2.3,10.8,-16.8
O=C(NCc1ccco1)c1ccc(Cn2c(=O)c3sccc3n(Cc3cccc(F)c3)c2=O)cc1,5704,-6.0,3.3,0.4,.,.,-9.7
Cc1ccc(S(=O)(=O)NN=C(c2ccccc2)c2cccnc2)cc1,.,0.0,.,5.1,-4.9,-15.3,.
COc1cc(/C=N/N(C)C)ccc1OC(=O)c1ccco1,4049,.,-7.1,.,.,.,35.4
N#CC(=NNc1ccc(S(=O)(=O)N2CCOCC2)cc1)C(N)=O,.,1.8,.,0.7,-8.7,3.1,.
N#Cc1ccc(OCC(=O)N2CCN(S(=O)(=O)c3ccc(Cl)s3)CC2)cc1,3698,7.4,.,4.3,27.2*,69.2*,-30.2
Cc1ccccc1-c1nc(Cc2ccccc2)no1,4800,26.5,-7.6,5.6,.,.,-68.2
C/C(=N\N1CCN(c2ccccc2)CC1)c1ccccc1O,3246,.,28.7,.,.,.,-27.9
CC(=O)Nc1ccc(OCCOc2ccc(/C=C3\C(=N)N4N=C(C(C)C)SC4=NC3=O)cc2)cc1,3816,-3.4,2.6,-1.4,-12.1,9.0,-7.4
COc1ccc(OCC(=O)Nc2nccs2)cc1,4393,6.9,26.8,10.9,-6.8,7.7,24.2

# A few values from the entries so far.
# CC(C)NC(=O)c1ccccc1NC(=O)Cc1ccc(Br)cc1 in PrP 5UTR inh reads -17.2
# Cc1ccc2cc(CCNS(=O)(=O)c3ccc(Cl)cc3)c(=O)[nH]c2c1C in Sa ugtP lethal reads 8.3
# O=C(COC(=O)c1n[nH]c2ccccc12)NC(=O)NC1CCCCC1 in BJeLR viability reads 0.4
# c1ccc(-c2ccc3c(n2)CCCO3)cc1 in Sa RN4220 lethal reads 11.9
# CCOC(=O)N1CCN(S(=O)(=O)c2ccc(F)c(C(=O)Nc3cc(C)cc(C)c3)c2)CC1 in Mtb hypoxia inh growth reads 6.3
